RanGTP-Impb inh = inhibitors of RanGTP-importin-beta interaction, primary screen, biochemical, FRET, CFP-Ran, YFP-importin-beta, homogeneous. 1.1% of 300,000 active. cell-free CFP-Ran/YFP-importin-beta FRET ratio. inhibition, % (test concentration not listed);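 active = most replicates above 15%; inconclusive = exactly half above 15%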;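 note: 0% = DMSO wells and 100% = Ran loaded with GDP instead of GTP; wells of about 40 µL received 100 nL stock; the first replicate is given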
Beta apoptosis = beta cell apoptosis inhibition | INS-1E cytokine-induced death, ATP luminescence, 48 h; percent of positive-control rescue, neutral wells zero | protection from apoptosis, % (test concentration not listed) | AID 435005 | 0.8% of 300,000 active;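 active = all replicates at 75% or more, or half of them and the mean; inconclusive = half reach 75% but not the mean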;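 note: 0% = cytokine-treated negative control wells and 100% = positive control rescue; higher means more ATP so stronger rescue from cytokine killing; wells of about 40 µL received 100 nL stock; the first replicate is given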
B2AR ag = human beta-2 adrenergic receptor agonism by FAP. response, % (concentration not given with the values). Am2.2-beta2AR cells, FAP receptor internalization, flow cytometry; reference of the scale not given here. P07550. 0.43% of 340,000 active;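 active = response above a set limit, near 3 SD of response in nonfluorescent compounds, cut at about 42% in these data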;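 note: stock transfer was 100 nL into about 11 µL; a reference agonist was the positive control; negative values mostly stem from fluorescent compounds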
Target sequence (P07550 whole entry, looked up): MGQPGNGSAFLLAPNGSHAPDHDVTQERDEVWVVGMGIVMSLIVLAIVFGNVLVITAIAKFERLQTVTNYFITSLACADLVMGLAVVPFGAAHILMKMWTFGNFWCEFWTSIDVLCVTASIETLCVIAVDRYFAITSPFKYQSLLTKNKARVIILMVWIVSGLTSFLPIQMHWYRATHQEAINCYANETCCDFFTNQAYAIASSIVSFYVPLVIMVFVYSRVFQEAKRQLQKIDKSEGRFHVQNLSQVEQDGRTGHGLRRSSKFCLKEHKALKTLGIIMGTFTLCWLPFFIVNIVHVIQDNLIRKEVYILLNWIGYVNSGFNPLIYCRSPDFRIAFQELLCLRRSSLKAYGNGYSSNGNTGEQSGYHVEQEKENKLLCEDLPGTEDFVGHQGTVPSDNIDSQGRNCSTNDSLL
LANA-H2A inh = blocks KSHV LANA binding to histone H2A/H2B. Q9QR71. cell-free LANA-H2A/H2B peptide, fluorescence polarization. inhibition, % (concentration not given with the values). 0.6% of 320,000 active. AID 2629; in the data active = inhibition mostly above about 10%, no sharp cut-off; inactive = mostly below about 6.7%;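 note: stock transfer was 7.5 nL into about 10 µL; 0% = median of vehicle wells and 100% = median of positive control wells; one replicate is shown; the record names a cut of 25% in any replicate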
Bfl-1 A1 inh = inhibitors of the anti-apoptotic protein A1, read as caspase activation; MEF A1-2A-BIM cells, Caspase-Glo 3/7 luminescence, 3 h; percent of clofoctol response, vehicle zero; 0.066% of 330,000 active; caspase activation, % (concentration not given with the values); AID 2462;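 active = over half of replicate activation scores above 10%, or exactly half above 10 with the replicate mean above 10; inconclusive = replicate mean below 10 yet half the replicates above 10; inactive = over half of replicates below 10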;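 note: wells of about 30 µL received 50 nL stock; many hits fall short of the cut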
UCH37 inh = human UCH37 deubiquitinating enzyme inhibition; inhibition, % (no concentration beside the values); purified proteasome/UCH37, Ub-AMC cleavage fluorescence; 0.33% of 330,000 active; Q9Y5K5;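 active = mean of two replicates above 20%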;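 note: 0% = compound-free wells with enzyme and 100% = wells lacking proteasome; stock transfer was 100 nL into about 20 µL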
Target sequence (Q9Y5K5 whole entry, looked up): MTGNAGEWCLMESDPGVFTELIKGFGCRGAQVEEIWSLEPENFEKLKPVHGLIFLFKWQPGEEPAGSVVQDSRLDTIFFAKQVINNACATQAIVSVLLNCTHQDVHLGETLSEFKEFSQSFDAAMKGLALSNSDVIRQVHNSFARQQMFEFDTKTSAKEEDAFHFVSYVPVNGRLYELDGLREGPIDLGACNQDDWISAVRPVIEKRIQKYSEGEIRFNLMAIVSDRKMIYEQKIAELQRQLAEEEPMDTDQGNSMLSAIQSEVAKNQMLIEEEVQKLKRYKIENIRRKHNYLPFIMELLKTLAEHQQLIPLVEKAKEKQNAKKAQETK
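Test system – human UCH37 enzyme supplied as purified proteasome complex · Incubation – 30 min preincubation with enzyme, 25 min cleavage at room temperature · Detection – AMC fluorescence from Ub-AMC cleavage, excitation 355 nm, emission 460 nm · Benchmarks – no-proteasome wells (full inhibition) and compound-free wells (no inhibition)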
Calb FLC = C. albicans growth modulation with fluconazole; C. albicans CaCi-2 (fluconazole-resistant clinical isolate) + fluconazole, Alamar Blue growth, 48 h; growth inhibition, % (concentration not given with the values); 0.57% of 300,000 active;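 active = most replicates above 75%; inconclusive = exactly half above 75%; inactive = most below 75%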;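 note: all wells also contain fluconazole at 8 µg/ml as a sub-toxic cotreatment; 0% = median of DMSO wells and 100% = median of geldanamycin control wells; wells of about 8 µL received 7.5 nL stock; the first replicate is given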
T cruzi repl = blocks replication of Trypanosoma cruzi; 1.4% of 300,000 active; inhibition, % (no concentration beside the values); T. cruzi beta-gal in NIH3T3, luminescence, 90 h;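 active = mean inhibition across valid replicates above about 55%, limit read from the data; inconclusive = mean below that limit but half or more replicates reach it; inactive = mean below it, under half of replicates reach it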;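 note: signal also drops with host cell toxicity which is not excluded here; 0% = plate median of DMSO wells and 100% = zero luminescence signal; higher percent means less beta-gal luminescence so fewer parasites; stock transfer was 50 nL into about 50 µL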
* marks the source's active call; other numbers are inactive results; ? = inconclusive; . = no result given; & = joins results of further samples.

SMILES	RanGTP-Impb inh	Beta apoptosis	B2AR ag	LANA-H2A inh	Bfl-1 A1 inh	UCH37 inh	Calb FLC	T cruzi repl
CCC(=O)NNc1nc2c(F)cccc2s1	2.8	-4	4	-1.0	0.8	0.0	-25	-2
O=c1/c(=C\c2ccc(O)cc2)sc2nc(-c3ccccc3)c(-c3ccccc3)n12	0.3	4	-1	-5.4	-0.3	.	0	30
Cn1c(=O)c2c(nc(NCCNC(=O)c3ccco3)n2Cc2ccccc2)n(C)c1=O	-0.3	4	-14	-2.0	0.7	-0.7	-3	-4
O=C(COc1ccc(/C=N/NS(=O)(=O)c2ccccc2)cc1)NCCc1ccccc1	-1.0	-3	4	-2.0	0.0	.	5	8
COc1ccc(-c2cc(C(=O)NNC(=O)c3csc(N4CCOCC4)n3)c3ccccc3n2)cc1	?	4	11	-0.7	0.1	-29	.	-8
Cc1nn(C(C)C(=O)O)c2ccccc12 (stereo unspecified)	2.0	-6	4	4.0	-1.2	2.9	-12	4
COc1cc(C)c(NC(=O)COc2cccc3c2OC(C)(C)C3)cc1OC	.	19	8	3.2	-0.2	2.1	.	.
CC(=O)N1CCC(=NNc2nc3ccccc3[nH]2)CC1	?	-1	-5	-9.7	-0.2	3.2	-19	-1
COc1ccc(NC(=O)c2[nH]c(C)c(C(C)=O)c2C)cc1	1.8	-16	7	-4.2	-2.0	6.0	-10	-5
NC(=NC(=O)c1ccccc1)N1CCOCC1	-6.7	-6	-5	1.3	1.8	-0.2	11	-20
CC1CCc2c(C(=O)NCC3CCCO3)csc2C1 (stereo unspecified)	1.2	0	-17	6.6	0.5	-0.6	?	11
CCc1ccc2c(c1)C1(SC(NC(C)=O)=NN1C(C)=O)C(=O)N2CC (stereo unspecified)	6.4	0	-7	-3.0	1.1	0.2	-12	-3
O=C(Nc1ccccc1)OCCCc1ccccc1	-7.0	-3	-3	-7.7	-1.7	0.7	-19	21
CNC(=O)c1sccc1SCc1c(Cl)cccc1Cl	5.4	-4	-2	-1.1	0.3	4.2	-2	2
Cc1cccc(C(=O)Nc2cccc3c2CCCC3)c1	2.2	-1	-7	5.9	2.0	4.8	-8	-8
COCCCN(C(=O)C1CCC1)c1c(N)n(Cc2ccccc2)c(=O)[nH]c1=O	.	-5	7	6.9	0.3	1.1	.	.
NC(=O)c1ccc(SCC(=O)OCC(=O)NCC2CCCCC2)c([N+](=O)[O-])c1	-2.9	-7	-1	-1.8	-0.5	.	-1	-2
Cc1nnc(N/N=C\c2ccc(-c3ccccc3[N+](=O)[O-])o2)n1N	0.3	-1	-13	0.9	0.1	.	-4	-11
CCN1C(=O)[C@@H]2[C@@H](c3ccc(-c4ccc(OC)cc4)c(OC)c3)N3CCC[C@@]3(C(=O)OC)[C@@H]2C1=O	-2.8	1	1	4.8	1.9	3.6	-3	-10
CCOC(=O)CC1COc2ccccc2N1C(=O)c1ccc(C)cc1 (stereo unspecified)	0.5	0	4	0.3	.	-0.6	2	-9
CC(=O)Nc1cccc(-n2nnc(SCC(=O)N(C)c3ccccc3)n2)c1	2.3	-2	-9	9.6	0.3	-0.4	24	3
Cc1cc(NC(=O)CSc2nnc(-c3cccc(Cl)c3)o2)no1	-1.5	17	2	0.6	0.6	1.7	26	25
CCCCc1nc2ccccc2c(NC(=O)CN2CCCC2)c1CCC	-2.1	-6	-1	1.1	-0.3	0.8	-1	-9
Cc1cccc(N/N=C(\C#N)S(=O)(=O)C(C)(C)C)c1	3.1	13	1	5.5	2.6	.	25	-24
NS(=O)(=O)c1ccc(CNC(=O)C23CC4CC(CC(C4)C2)C3)cc1	1.6	-4	2	0.7	-0.5	0.9	4	-2

4 entries from above in a different format:
canonical_smiles,RanGTP-Impb inh,Beta apoptosis,B2AR ag,LANA-H2A inh,Bfl-1 A1 inh,UCH37 inh,Calb FLC,T cruzi repl
Cc1nn(C(C)C(=O)O)c2ccccc12 (stereo unspecified),2.0,-6,4,4.0,-1.2,2.9,-12,4
COc1cc(C)c(NC(=O)COc2cccc3c2OC(C)(C)C3)cc1OC,.,19,8,3.2,-0.2,2.1,.,.
CC(=O)N1CCC(=NNc2nc3ccccc3[nH]2)CC1,?,-1,-5,-9.7,-0.2,3.2,-19,-1
COc1ccc(NC(=O)c2[nH]c(C)c(C(C)=O)c2C)cc1,1.8,-16,7,-4.2,-2.0,6.0,-10,-5

New compounds follow:
SMILES	RanGTP-Impb inh	Beta apoptosis	B2AR ag	LANA-H2A inh	Bfl-1 A1 inh	UCH37 inh	Calb FLC	T cruzi repl
COC(=O)/C(=C\Nc1ccc(Cl)cc1Cl)NC(=O)c1ccc(OC)cc1	0.2	29	9	-8.1	1.1	5.0	10	26
Cn1ccnc1SCC(=O)NC1CC1	2.1	-6	13	4.4	-1.1	0.0	-3	-7
Cc1cccc(CCNc2nc3ccccc3n3nnnc23)c1	-1.1	5	7	-1.8	0.0	-67	1	-7
O=C(c1c[nH]c(C(=O)N2CCN(c3ccccc3F)CC2)c1)c1cccc(Cl)c1Cl	1.1	.	3	.	.	2.7	13	60*
O=C(CCC(=O)N1CCN(c2ccccn2)CC1)c1cccs1	.	3	-5	-4.2	0.2	1.1	.	.
CC(C)CNS(=O)(=O)c1ccc(OCC(=O)NCC2CCCO2)c(Cl)c1 (stereo unspecified)	3.0	-2	9	-0.6	0.1	1.4	13	11
CCOC(=O)c1nnc2cc(-c3ccc(Br)cc3)nn2c1C	1.2	-3	-4	-0.2	0.5	-3.1	.	11
CCCCC(=O)Nc1ccc(NC(=O)c2ccccc2OC)cn1	1.2	0	-24	2.7	-2.1	1.1	-4	5
CC(=O)Nc1ccccc1NC(=O)C/C(C)=N/NC(=O)C(=O)Nc1cccc(Cl)c1C	-5.4	-1	-3	-1.6	0.0	.	3	1
CN1CCC(=O)N([C@H](CN=[N+]=[N-])Cc2ccccc2)CC1	1.4	-3	1	-2.7	1.3	-2.3	4	-5
CCN(CC(=O)NC1CCS(=O)(=O)C1)S(=O)(=O)c1cc([N+](=O)[O-])ccc1C (stereo unspecified)	2.3	.	1	-2.2	0.0	2.0	2	-3
Cc1ccc2[nH]c(=O)c(CN(Cc3cccnc3)C(=O)c3ccncc3)cc2c1	.	2	-8	4.3	-0.8	-20	-6	8
CC(=O)N1CCc2cc(S(=O)(=O)CCC(=O)NCc3ccc(Cl)cc3)ccc21	0.5	-4	-9	3.7	0.1	-0.3	-1	-12
Cc1cc(C)n(CCCNCC(O)c2ccccc2)n1 (stereo unspecified)	-0.6	-1	1&-3	1.5	-0.2	5.2&3.9	-12	-1
O=C(NC(=S)N1CCCCC1)c1cccs1	0.2	-2	7	-0.4	-0.5	4.4	26	-12
O=C(CN1CCN(c2ccccc2O)CC1)Nc1ccccc1C(=O)NCCc1ccccc1	.	12	13	-4.2	-0.6	3.1	.	.
CC(C(=O)NCc1ccc2c(c1)OCO2)N1c2cccc3cccc(c23)S1(=O)=O (stereo unspecified)	-4.4	0	5	0.7	1.4	-17	-21	3
COc1cccc(-c2nc(CS(=O)(=O)CC(=O)NCCCOC(C)C)c(C)o2)c1	0.7	0	-6	3.7	0.4	2.9	22	-26
COc1nc(C)nc(NC(=O)NS(=O)(=O)c2ccc(C)cc2)n1	4.7	-5	-3	1.9	0.6	2.8	1	-12
COC(=O)c1ccc(N2CCOCC2)c(NC(=O)Nc2cccc(OC)c2)c1	-0.7	.	6	-0.3	-2.3	4.1	4	2
CCOC(CNC(=O)c1ccc(CNC(=O)c2ccc(OC)c(OC)c2)cc1)OCC	1.8	3	-6	2.8	0.8	0.6	0	7
COC(=O)c1sc(NC(=O)c2oc3ccccc3c2C)nc1C	-2.7	4	4	-1.1	1.5	-15	9	10
O=C(NCc1ccccc1)C1(C(F)(F)F)C/C(=C/CCO)CCCO1 (stereo unspecified)	-0.4	0	2	0.9	-2.6	3.4	-1	-7
O=C1CCCCC1C(=O)c1ccccc1 (stereo unspecified)	-0.2	-1	-1	6.7	0.0	2.9	28	-19
Cc1cc2ncn(C3CC(=O)N(Cc4ccc(N5CCCC5=O)cc4)C3=O)c2cc1C (stereo unspecified)	?	-3	-4	5.5	0.2	3.1	-1	-15

The last 2 entries of the section before are carried over, then new ones follow.
SMILES	RanGTP-Impb inh	Beta apoptosis	B2AR ag	LANA-H2A inh	Bfl-1 A1 inh	UCH37 inh	Calb FLC	T cruzi repl
O=C1CCCCC1C(=O)c1ccccc1 (stereo unspecified)	-0.2	-1	-1	6.7	0.0	2.9	28	-19
Cc1cc2ncn(C3CC(=O)N(Cc4ccc(N5CCCC5=O)cc4)C3=O)c2cc1C (stereo unspecified)	?	-3	-4	5.5	0.2	3.1	-1	-15
O=C(CC(=O)c1ccccc1)Nc1ccccn1	2.2	-3	-5	5.9	-10	-0.9	-4	15
COc1cccc(N2CC(NC(=O)C(=O)c3c[nH]c4ccccc34)CC2=O)c1 (stereo unspecified)	3.9	-1	7	1.5	-0.4	7.1	20	13
Cc1ncoc1C(=O)NC1CC(C)(C)Cc2c1cnn2-c1ccc(F)cc1 (stereo unspecified)	-7.7	-2	4	-0.4	0.0	3.0	7	-3
Cc1ccc(-c2nc(N)sc2C)cc1	3.3	-19	-9	-2.7	-0.9	2.0	-4	-4
O=c1c2ccccc2oc2cc(-c3ccc4cc[nH]c4c3)ccc12	.	3	3	1.9	-1.3	-50	.	.
COc1cccc(C(=O)NC(=S)N2c3ccccc3CC2C)c1OC (stereo unspecified)	0.3	.	-4	8.9	0.5	3.9	-2	-6
O=C(COC(=O)c1cccc(S(=O)(=O)NCc2ccccc2)c1)NCC1CCCO1 (stereo unspecified)	-1.0	2	-1	4.1	-0.2	-0.2	-10	-16
CCc1cccc2c1NC1(CCCC1)CC2C (stereo unspecified)	-2.1	4	3	-5.8	-0.1	6.9	-5	29
Cc1cc2cc3c(cc2nc1SCC(=O)N1CCOCC1)OCO3	0.6	4	2	3.7	0.0	4.5	30	-10
COc1ccc(-c2coc3cc(OC(=O)N4CCOCC4)ccc3c2=O)cc1	3.0	3	3	-2.3	-1.0	2.9	-30	12
COc1cc(CC(=O)NCCCc2ccccc2)cc(OC)c1OC	1.8	-3	-6	-0.1	0.0	6.5	1	-10
COc1cccc(OC)c1C(=O)Nc1ccc(N2CCN(C(=O)c3cccs3)CC2)cc1	-2.0	3	-2	2.8	0.7	-1.2	-6	2
COc1ccc(N2C(=O)CSC2c2ccc(F)cc2)cc1 (stereo unspecified)	5.0	.	-4	0.2	0.1	-1.0	-6	1
COCCNC(=O)COc1ccc(C)cc1C	1.8	-10	11	0.6	0.2	4.2	2	-23
Clc1ccccc1-c1ncc(-c2ccccc2)o1	-1.1	1	8	0.2	-8.5	-17	-10	-11
Cc1cc(Cl)ccc1OC(C)C(=O)OCC(=O)c1ccc[nH]1 (stereo unspecified)	.	-3	1	0.0	-1.3	0.6	.	.
